Screens: PubChem, National Center for Advancing Translational Sciences (NCATS)
TsaE inh – inhibitors of E. coli YjeE (TsaE); P0AF67; purified YjeE, fluorescence polarisation of a bound ADP probe; Potency, µM; 71,000 compounds, 0.05% hits; active = well fitted falling curve; inconclusive = weaker or top-dose-only fall, or a rising curve; inactive = flat or poorly fitted curve;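 further: top concentration of the series not given in the record; excess ADP was the control for the full effect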
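Fluorescence polarization of a BODIPY Texas Red–ADP probe (2 uM) bound to purified YjeE (10 uM) was read after 15 min room-temperature incubation with compounds. Loss of polarization marks inhibitors; ADP serves as titrated control.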
Bst PK mod – modulators of Bacillus stearothermophilus pyruvate kinase; partly purified Bacillus stearothermophilus pyruvate kinase, luminescence ATP production; ribose 5-phosphate activator present at AC10; Potency, µM; 51,000 compounds, 1.2% hits; in the data active means potency below about 11 µM; inconclusive means mostly about 12 µM to 25 µM; inactive means weaker than that;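 the screen sought inhibitors and activators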;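 further: potency means the concentration at half of the fitted maximal effect; scaled between full activation by ribose 5 phosphate and full inhibition by luteolin; about four in five hits inhibit and the cells do not say which; series up to 57 µM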
Numbers without * were called inactive; i = inactive; ? = inconclusive; . = not tested or not shown. Only part of the results is shown. The share of hits here may be higher or lower than overall.

SMILES | TsaE inh | Bst PK mod
COc1ccc(C2CC(=O)c3cnc(NC(=O)c4ccccc4OC)nc3C2)c(OC)c1 (centres undefined) | i | >57
O=c1cnc2cnc(Nc3ccccc3)nc2n1Cc1ccc(F)cc1 | i | .
COc1ccc(C(=O)N2CCC3(CCCN(C(=O)Nc4cccc(F)c4)C3)CC2)cc1 | i | .
Cc1nc(N2CCN(C(=O)CCC(=O)O)CC2)c2c(C)c(C)sc2n1 | i | >57
CCc1nnc(NC(=O)CSc2nnc(COc3ccccc3)n2-c2ccc(C)cc2)s1 | i | >57
Cc1cccn2c(=O)c3cc(C#N)c(=NC(=O)c4cccnc4)n(CC4CCCO4)c3nc12 (centres undefined) | i | >57
N[C@@]1(C(=O)O)CCC[C@@H]1C(=O)O | i | .
O=C1c2ccccc2C(O)(Cc2ccccc2)N1C1CCCCC1 (centres undefined) | i | >57
CC(C)CN1CCCC2(CCN(C(=O)c3csnn3)CC2)C1 | i | .
O=C(Nc1cccnc1)c1c(F)cccc1F | i | >57
COc1ccc(-n2cnnc2SC(C)c2nc3sc(C)c(C)c3c(=O)[nH]2)cc1 (centres undefined) | i | >57
O=C(O)CC(NCc1ccco1)C(=O)OCC1CCCO1 (centres undefined) | . | >25.6
COc1ccc(C(NC(N)=O)c2ccccc2)cc1 (centres undefined) | i | .
CCOC(=O)c1c(NC(=O)CSc2nnc(-c3cccnc3)n2Cc2ccco2)sc(C)c1C | i | >57
COc1cccc(Oc2nnnn2-c2ccccc2)c1 | i | >57
Cc1ccc(-c2nnc(SCc3ccccc3F)o2)cc1 | i | i
CC(C)N(CCNC(=O)C1CCC(=O)N1Cc1ccc(F)cc1)Cc1ccccc1 (centres undefined) | i | >57
CN(C)S(=O)(=O)c1ccc(C(=O)NCCOc2ccccc2)cc1 | i | .
CCNc1ncc2nc(-c3cc(F)cc(F)c3)c(=O)n(C)c2n1 | i | .
OC(COc1ccccc1Cl)CN1CCN(CC(O)COc2ccccc2Cl)CC1 (centres undefined) | i | .
CCS(=O)(=O)N1CCCC(C(=O)NCCc2ccc(OC)c(OC)c2)C1 (centres undefined) | i | >57
Cc1nc2c(=O)n(C)c(=O)[nH]c2n1Cc1ccccc1 | . | >25.6
CCc1ccc(N(C(C)=O)C2C=CS(=O)(=O)C2)cc1 (centres undefined) | i | >57
C=CCn1c(Oc2cc(C)ccc2C)nc2c1c(=O)n(C)c(=O)n2C | i | >57
CCN(CC)S(=O)(=O)c1cccc(C(=O)NC(C(=O)NC2=NCCS2)C(C)C)c1 (centres undefined) | i | >57
COc1ccc(-c2nc3n(c(=O)c2C#N)CCCS3)cc1 | i | >57
CCOC(=O)CSc1nnc(Cc2ccccc2)n1Cc1ccco1 | i | >57
COC(=O)[C@H](Cc1ccccc1)NC(=O)N1CCCCC1C (some centres undefined) | i | >57
Cc1ccccc1NC(=O)Cn1nnc(-c2ccc(N3CCOCC3)cc2)n1 | i | >57
CC(C)C(NC(=O)C1CCCCC1)C(=O)NC1CCN(Cc2ccccc2)CC1 (centres undefined) | i | >57
Cc1cc(N=Cc2cc(Br)ccc2O)no1 | i | .
O=C(O)Cn1nnn(-c2ccccc2)c1=S | i | >57
O=S(=O)(NCCSc1ccccc1)c1cccs1 | i | .
Cc1c(NC(=O)CN2CCCc3ccccc32)c(=O)n(-c2ccccc2)n1C | i | >57
COc1ccc(-n2c(SCC(=O)N3CCCCC3)nc(O)cc2=O)cc1 | i | .
CSc1nnc([C@H](C)NC(=O)OC(C)(C)C)o1 | i | >57
COc1ccccc1NC(=O)CN(c1ccccc1F)S(C)(=O)=O | i | >57
CCOC(=O)c1cnn(-c2ncnc3c2oc2ccccc23)c1N | i | >57
c1ccc(Oc2cccc(OCCCn3cncn3)c2)cc1 | i | >57
COc1ccc2ccccc2c1C(O)c1nccn1C (centres undefined) | i | .
CC(=O)Nc1cccc(NC(=O)c2cc3ccccc3o2)c1 | i | ?
CCCC(C(=O)N1CCOCC1)N1C(=O)C2C3C=CC(C3)C2C1=O (centres undefined) | i | .
COc1ccc(-c2noc(CN3C(=O)c4ccccc4C3=O)n2)cc1 | i | ?
Cc1cc(NC(=O)NC2CCCN2S(=O)(=O)c2ccc(Cl)cc2)no1 (centres undefined) | i | ?
CCOC(=O)c1cnc2ccc(Br)cc2c1NCCO | i | .
COc1ccc(-c2csc3nc(C)n(-n4cccc4)c(=O)c23)cc1OC | i | .
CC(C)CC(NC(=O)C(NC(=O)OC(C)(C)C)C(C)C)C(=O)N1CCCC1C(N)=O (centres undefined) | i | >57
NCCc1nnc(SCc2c(F)cccc2Cl)o1 | i | .
Oc1ccccc1-c1nc(N2CCN(Cc3ccccc3)CC2)c2ccccc2n1 | i | >57
CCOCCCN1C(=O)CN(C2CCCCCC2)C(=O)C1c1ccc(OC)cc1 (centres undefined) | i | >57
Cc1onc(-c2ccccc2Cl)c1C(=O)Nc1ccc(-c2cn3cccnc3n2)cc1 | i | >57
CCOC(=O)N1CCC(NC(=O)CCc2nc(-c3ccc(C)cc3)no2)CC1 | i | >57
N=C(C[C@@H](O)COc1ccccc1-c1ccccc1)N1CCCCC1 | i | .
CN(C)CCCc1c2ccccc2nc2ccc(Cl)cc12 | i | .
CC(NS(=O)(=O)c1ccccc1)C(=O)Nc1nccs1 (centres undefined) | i | >57
Cc1cccc(CC2CC(=O)N(c3ncccn3)C2=O)c1 (centres undefined) | i | >57
CCn1c(=O)n(CCOC)c(=O)c2c3c(sc21)CCCC3 | i | .
CCOc1ccc(C2CC(c3ccc(OC)cc3)n3ncnc3N2)cc1 (centres undefined) | i | .
COc1cccc(/C(O)=C2/C(=O)C(=O)N(CCN3CCOCC3)C2c2cccnc2)c1 (centres undefined) | i | >57
CCCC(=O)Nc1ccc(NC(=O)c2ccco2)cn1 | i | >57

Entries of single compounds, looked up by structure:
NCCc1nnc(SCc2c(F)cccc2Cl)o1 in the list: TsaE inh: i; Bst PK mod: .
CCOC(=O)c1cnc2ccc(Br)cc2c1NCCO in the list: TsaE inh: i; Bst PK mod: .

Continued:
SMILES | TsaE inh | Bst PK mod
COCC(=O)N1CCCc2ccccc21 | i | >57
O=C(N1CCOCC1)N1CCN(S(=O)(=O)N2CCOCC2)CC1 | i | >57
Cc1cc(C(C)(C)C)cc(C)c1CC1=NCCN1 | i | >25.6
COCCNC(=O)c1cn(C)c(=O)c2cc(OC)c(OC)cc12 | i | >57
CC1CN(S(=O)(=O)c2cccc(C(=O)OCc3cc(=O)oc4cc(O)ccc34)c2)CC(C)O1 (centres undefined) | i | >57
CCOC(=O)c1[nH]cnc1C(=O)O | i | >57
CCOc1ccc(NC(=O)CN2CCN(S(=O)(=O)c3ccc(Cl)cc3)CC2)cc1 | i | >57
Cc1nc(N=Nc2cc(S(=O)(=O)O)c3cc([N+](=O)[O-])cc(S(=O)(=O)O)c3c2)c(COP(=O)(O)O)c(C=O)c1O | i | .
CCN1C(=O)C(NC(C)=O)c2cc(OC)ccc21 (centres undefined) | i | >57
CC(C)n1c2ccccc2c2nc3ccccc3nc21 | i | >11.4
Cn1c(C(=O)N2CCN(c3nc4ccccc4s3)CC2)cc2sccc21 | i | >57
Cc1cc2ccc(=O)oc2cc1OC[C@@H](O)C(C)(C)O | i | .
c1ccc(N2CCN(c3nc4cc5c(cc4s3)OCCO5)CC2)cc1 | i | >57
O=C(CSc1nc2cc3c(cc2c(=O)n1CCC1=CCCCC1)OCO3)NCc1ccco1 | i | >57
Cc1ccc(-c2csc3ncnc(-n4nc(C)cc4N)c23)cc1 | i | >57
COC(=O)c1c(C)[nH]c(C(C)=O)c1C | i | >57
COc1ccccc1NC(=O)c1ccc(S(=O)(=O)N2CCCC2)cc1 | i | .
CCc1[nH]nc2c1C(c1ccc(Br)s1)C(C#N)=C(N)O2 (centres undefined) | . | >25.6
CCON=C1C(C)(C)C(C)(C)C(C)(C)C1(C)C | i | .
O=C(Oc1ccc(Cl)cc1)N1CCCCC1 | i | .
COc1cccc(C(=O)OCCN(C)C(C)(C)C)c1 | . | >25.6
NCCC(=O)NCCc1cnc[nH]1 | i | .
Cc1ccc(NC(=O)c2cc(-c3cccc(O)c3)on2)cc1C | i | .
CC1CCN(C(=O)C(Cc2ccccc2)NS(=O)(=O)c2ccc3c(c2)oc(=O)n3C)CC1 (centres undefined) | i | .
CSc1ccc(S(=O)(=O)NC2CCCCCC2)cc1 | i | >57
CCCn1c(-c2ccc(F)cc2)nc2c(N3CCN(CCn4ccnc4)CC3)nc(C)nc21 | i | .
COc1cccc(Cn2c(=O)c(-c3ccc(Cl)cc3)nc3cnc(N(C)C)nc32)c1 | i | .
COC(=O)Cn1c(CCS(=O)(=O)c2ccc(C)cc2)nc2ccccc21 | i | >57
O=C(Cn1cnc2c(nnn2-c2ccccc2)c1=O)NCCc1ccccc1 | i | .
O=S(=O)(NCC(c1cccnc1)N1CCN(c2ccc(F)cc2)CC1)c1cc(F)ccc1F (centres undefined) | i | >57
Cc1ccc(-n2ncc3c(NCc4ccc5c(c4)OCO5)ncnc32)c(C)c1 | . | >25.6
Cc1sc2ncnc(NCCCO)c2c1C | i | .
Cc1ccc(-n2nc(C)c3c(C)c(CCC(=O)NCc4ccco4)c(C)nc32)cc1 | i | .
CC1(C)N([O-])C(c2ccccc2)=C[N+](=O)C1(C)C | i | >57
O=C(CCc1nc2ccccc2c(=O)[nH]1)OCc1nnc(-c2ccccc2)o1 | i | >57
Cc1nc(C)c(C(=O)C2=C(O)C(=O)N(CCCN(C)C)C2c2ccco2)s1 (centres undefined) | i | >57
O=c1[nH]c2ccccc2cc1-c1noc(-c2cccnc2)n1 | i | >57
CCc1nnc(NC(=O)c2ccc(-c3cccc(C(F)(F)F)c3)o2)s1 | i | >57
COCCOC(=O)C1=C(C)NC2=C(C(=O)CC(C)(C)C2)C1c1cc2c(cc1Br)OCO2 (centres undefined) | i | .
COc1cc2c(cc1OC)C1(NCC2)C(=O)Nc2ccccc21 (centres undefined) | i | >57
Nn1c(SCC(=O)Nc2ccc(F)c(F)c2)nnc1C1CCCCC1 | i | >57
COc1cc(OC)c(NC(=O)Cn2cccc2)cc1Cl | i | >57
CCCN(CCO)Cc1ccc(Cl)c(Cl)c1 | i | >57
O=C(NCC1CCCO1)C1CCC(=O)N1CCc1ccccc1 (centres undefined) | i | >57
O=C(COc1ccc(Cl)cc1)N1CCN(C(=O)c2cccc(F)c2)CC1 | i | >57
N#CC1=C(N)SC2(CCCCC2)SC1c1ccccc1 (centres undefined) | i | >57
Cc1nnc(C)n1/N=C/c1ccc2c(c1)OCCO2 | i | >57
Cc1ccc(-n2nc(C)c3c2OC(N)=C(C#N)C3c2ccncc2)cc1 (centres undefined) | i | >57
O=C(NCc1ccc2c(c1)OCO2)C1CCC(CNc2c(N3CCCC3)c(=O)c2=O)CC1 (centres undefined) | i | .
CCOC(=O)C1CCN(S(=O)(=O)c2ccc3c(c2)CCCN3C(C)=O)CC1 | i | >57
COc1ccccc1C1C=C(c2ccc(Cl)cc2)Nc2nc(N3C(=O)CCC3=O)nn21 (centres undefined) | i | >57
CC(C)C(NC(=O)c1ccc(Cl)cc1)C(=O)NC1=NCCS1 (centres undefined) | i | >57
O=C(OCC(=O)N1CCN(C(=O)c2ccco2)CC1)c1cc(-c2ccc(F)cc2)nc2ccccc12 | i | 2.11*
Cc1ccc(-n2nc3c(c2NC(=O)c2ccc4c(c2)OCO4)CSC3)c(C)c1 | i | >57
Cc1c(N/C=C/C(=O)c2cccs2)c(=O)n(-c2ccccc2)n1C | i | .
CCOC(=O)c1c(C)[nH]c(C)c1C(=O)CSc1nc(N)cc(N)n1 | i | >57
Cc1nnc(NCCc2ccccc2)n(N)c1=O | i | >57
O=C(Nc1nc(-c2ccccc2)ns1)c1cccs1 | i | >57
CC(=O)N(Cc1cc2c(C)cc(C)cc2[nH]c1=O)C1CCCCC1 | i | >57
O=C(NC(=O)c1ccc(Cl)cc1)Nc1cc(N2CCCCC2)ncn1 | i | >57
CCN(CC)C(=O)Cn1cnc2ccccc2c1=O | i | >57
CC(C)N1CCc2c(sc(NC(=O)c3ccc(S(=O)(=O)N4CCOCC4)cc3)c2C#N)C1 | i | .

No new results follow: 17 of the compounds above.
SMILES | TsaE inh | Bst PK mod
Nn1c(SCC(=O)Nc2ccc(F)c(F)c2)nnc1C1CCCCC1 | i | >57
COc1cc(OC)c(NC(=O)Cn2cccc2)cc1Cl | i | >57
CCCN(CCO)Cc1ccc(Cl)c(Cl)c1 | i | >57
O=C(NCC1CCCO1)C1CCC(=O)N1CCc1ccccc1 (centres undefined) | i | >57
O=C(COc1ccc(Cl)cc1)N1CCN(C(=O)c2cccc(F)c2)CC1 | i | >57
N#CC1=C(N)SC2(CCCCC2)SC1c1ccccc1 (centres undefined) | i | >57
Cc1nnc(C)n1/N=C/c1ccc2c(c1)OCCO2 | i | >57
Cc1ccc(-n2nc(C)c3c2OC(N)=C(C#N)C3c2ccncc2)cc1 (centres undefined) | i | >57
O=C(NCc1ccc2c(c1)OCO2)C1CCC(CNc2c(N3CCCC3)c(=O)c2=O)CC1 (centres undefined) | i | .
CCOC(=O)C1CCN(S(=O)(=O)c2ccc3c(c2)CCCN3C(C)=O)CC1 | i | >57
COc1ccccc1C1C=C(c2ccc(Cl)cc2)Nc2nc(N3C(=O)CCC3=O)nn21 (centres undefined) | i | >57
CC(C)C(NC(=O)c1ccc(Cl)cc1)C(=O)NC1=NCCS1 (centres undefined) | i | >57
O=C(OCC(=O)N1CCN(C(=O)c2ccco2)CC1)c1cc(-c2ccc(F)cc2)nc2ccccc12 | i | 2.11*
Cc1ccc(-n2nc3c(c2NC(=O)c2ccc4c(c2)OCO4)CSC3)c(C)c1 | i | >57
Cc1c(N/C=C/C(=O)c2cccs2)c(=O)n(-c2ccccc2)n1C | i | .
CCOC(=O)c1c(C)[nH]c(C)c1C(=O)CSc1nc(N)cc(N)n1 | i | >57
Cc1nnc(NCCc2ccccc2)n(N)c1=O | i | >57
